STAT3 binder = STAT3 (human) binding. calls only. Small molecule microarray, His-STAT3 binding, anti-His fluorescence. 17,000 compounds, 0.2% hits;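 active means compounds whose four printed spots each show fluorescence over background unusually high for their array block, chance value under 7%; compounds were printed on slides so no solution concentration is given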;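 further: about 2 pmol printed per array spot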
Target sequence (P40763 whole entry, looked up): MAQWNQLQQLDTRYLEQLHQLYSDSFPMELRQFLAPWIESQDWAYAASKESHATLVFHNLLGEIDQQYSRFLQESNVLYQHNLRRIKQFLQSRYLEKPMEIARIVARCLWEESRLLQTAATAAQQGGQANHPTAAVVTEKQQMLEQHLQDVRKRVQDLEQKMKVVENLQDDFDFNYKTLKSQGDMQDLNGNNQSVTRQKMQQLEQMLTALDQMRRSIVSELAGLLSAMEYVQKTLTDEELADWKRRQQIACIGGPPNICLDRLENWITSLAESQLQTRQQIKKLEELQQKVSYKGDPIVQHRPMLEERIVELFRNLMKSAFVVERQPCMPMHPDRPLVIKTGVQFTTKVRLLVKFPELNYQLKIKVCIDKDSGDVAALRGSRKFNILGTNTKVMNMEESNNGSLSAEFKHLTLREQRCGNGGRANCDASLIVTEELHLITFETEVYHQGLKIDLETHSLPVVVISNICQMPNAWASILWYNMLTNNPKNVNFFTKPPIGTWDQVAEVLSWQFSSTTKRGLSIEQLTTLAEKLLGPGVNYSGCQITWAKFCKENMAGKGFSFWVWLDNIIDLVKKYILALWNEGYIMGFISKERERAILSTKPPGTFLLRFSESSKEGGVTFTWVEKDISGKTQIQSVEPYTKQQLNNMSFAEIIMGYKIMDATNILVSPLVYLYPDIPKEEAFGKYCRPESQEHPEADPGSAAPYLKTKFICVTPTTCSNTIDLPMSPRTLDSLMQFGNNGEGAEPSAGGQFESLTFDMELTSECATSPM
ID4 binder = binders of human ID4 protein. 31,000 compounds, 1.2% hits. small molecule microarray, Flag-ID4 binding, fluorescence F/B. calls only. P47928;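 active means spot signal over background at p below 0.07 in all four prints; compounds were printed on slides so no solution concentration is given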;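 further: a binder raises fluorescence above local background on the spot; about 2 pmol printed per array spot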
Target sequence (P47928 whole entry, looked up): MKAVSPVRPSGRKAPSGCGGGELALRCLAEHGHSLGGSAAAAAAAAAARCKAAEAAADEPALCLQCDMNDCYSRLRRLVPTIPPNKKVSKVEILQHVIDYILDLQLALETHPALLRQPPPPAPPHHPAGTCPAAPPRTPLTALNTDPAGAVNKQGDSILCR
Myc binder = binds human c-Myc on microarray. small molecule microarray, His-c-Myc binding, anti-His fluorescence. calls only. P01106. 17,000 compounds, 1.5% hits;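 active means spot fluorescence over background with P-value below 7% in all four replicate spots, showing protein binding; compounds were printed on slides so no solution concentration is given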;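 further: score is binary with 100 for all four spots passing and 0 otherwise; about 2 pmol printed per array spot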
p53 mut binder = binds human mutant p53 on microarray. small molecule microarray binding, anti-GST fluorescence. calls only. 17,000 compounds, 0.4% hits;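 active means compounds whose four printed spots each glow above background more than chance allows, each with a p-value under 7%; compounds were printed on slides so no solution concentration is given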;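 further: about 2 pmol printed per array spot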
Calls only; i = inactive; / = no result given. An excerpt (hit frequency here may not be typical).

SMILES	STAT3 binder	ID4 binder	Myc binder	p53 mut binder
C[C@@H]1CN([C@@H](C)CO)C(=O)c2cc(NC(=O)Nc3ccccc3)ccc2O[C@@H](C)CCCCO[C@@H]1CN(C)C(=O)C1CCCCC1	i	i	i	i
CC(C)NC(=O)Nc1ccc2c(c1)CC(=O)N([C@H](C)CO)C[C@@H](C)[C@@H](CN(C)CC1CC1)O2	i	i	i	i
COc1ccc(S(=O)(=O)Nc2ccc3c(c2)C(=O)N([C@H](C)CO)C[C@@H](C)[C@@H](CN(C)Cc2ccccc2)O3)cc1	i	/	i	i
C[C@@H]1CN([C@@H](C)CO)C(=O)Cc2cc(NC(=O)c3ccncc3)ccc2O[C@H]1CN(C)C(=O)Nc1ccc(F)cc1	i	i	i	i
Cc1noc(C)c1S(=O)(=O)Nc1ccc2c(c1)C(=O)N([C@@H](C)CO)C[C@H](C)[C@H](CN(C)C(=O)CCC(F)(F)F)OCCCC[C@@H](C)O2	i	i	i	i
O=C(O)CCc1cc2ccoc2cc1O[C@@H]1O[C@H](CO)[C@@H](O)[C@H](O)[C@H]1O	i	i	i	i
C[C@H]1CN([C@@H](C)CO)C(=O)CCCn2nncc2CO[C@H]1CN(C)S(=O)(=O)c1cn(C)cn1	i	/	i	i
C[C@@H]1CCCCO[C@@H](CN(C)Cc2ccccc2)[C@@H](C)CN([C@@H](C)CO)C(=O)c2cc(N(C)C)ccc2O1	i	i	i	i
COc1ccc(CN(C)C[C@H]2Oc3ccc(NC(=O)Cc4cn(C)c5ccccc45)cc3CC(=O)N([C@H](C)CO)C[C@H]2C)cc1	i	i	i	i
Cc1ccc(-c2noc(CN(C(=O)c3ccccc3-c3ccccc3)C(C)C)n2)cc1	i	i	i	i
C[C@@H]1CN([C@H](C)CO)C(=O)Cc2cc(NS(=O)(=O)c3cn(C)cn3)ccc2O[C@H]1CN(C)CC1CCCCC1	i	/	i	i
C[C@H](CO)N1C[C@H](C)[C@@H](CN(C)C(=O)NC2CCCCC2)Oc2ccc(NC(=O)Nc3ccc(C(F)(F)F)cc3)cc2CC1=O	i	i	i	i
C[C@@H]1CCCCO[C@@H](CN(C)C(=O)CCC(F)(F)F)[C@@H](C)CN([C@@H](C)CO)C(=O)c2cc(NC(=O)Cc3ccccc3)ccc2O1	i	i	i	i
Cc1noc(C)c1S(=O)(=O)N(C)C[C@H]1Oc2ccc(NS(=O)(=O)c3ccc(Cl)cc3)cc2CC(=O)N([C@@H](C)CO)C[C@H]1C	i	i	i	i
COc1ccc(NC(=O)Nc2cccc3c2O[C@@H](CN(C)Cc2ccncc2)[C@H](C)CN([C@H](C)CO)C3=O)cc1	i	i	i	i
Cc1ccc(OCC(O)C(C)NC(C)C)c2c1CCC2 (stereo unspecified)	i	i	i	i
CNC(=O)COc1ccc(Nc2nnc(-c3ccc(OC)cc3)c3ccccc23)cc1	i	i	i	i
C[C@@H]1CN([C@@H](C)CO)C(=O)c2cc(NC(=O)Cn3cnnn3)ccc2O[C@@H]1CN(C)Cc1ccncc1	i	i	i	i
COc1ccc(S(=O)(=O)N(C)C[C@@H]2Oc3ccc(NC(=O)Nc4ccc(C(F)(F)F)cc4)cc3CC(=O)N([C@@H](C)CO)C[C@H]2C)cc1	i	i	i	i
CC(=O)c1cc(C)c(O)c(COC2OC(CO)C(O)C(O)C2O)c1O (stereo unspecified)	i	i	i	i
CC(C)c1onc(-c2c(Cl)cccc2Cl)c1COc1ccc(/C=C/c2cccc(C(=O)O)c2)c(Cl)c1	i	i	i	i
C[C@H]1CN([C@@H](C)CO)C(=O)Cc2cc(NC(=O)c3ccncc3)ccc2O[C@H]1CN(C)C(=O)Nc1ccc(F)cc1	i	i	i	i
CC(C)NC(=O)Nc1ccc2c(c1)C(=O)N([C@H](C)CO)C[C@H](C)[C@H](CN(C)C(=O)Nc1ccccc1)OCCCC[C@@H](C)O2	i	i	i	i
CC(C)CNC(=O)[C@@]1(C)c2ccccc2C(=O)N(Cc2ccccc2)[C@H]1c1ccc(CO)cc1	i	/	i	i
O=C(c1ccccc1)N1Cc2ccccc2C[C@@]2(N=C(c3ccc(OCCCO)cc3)O[C@H]2c2ccccc2)C1=O	i	i	i	i
The list continues:
SMILES	STAT3 binder	ID4 binder	Myc binder	p53 mut binder
CN1C(=O)N[C@@H]2c3ccccc3O[C@@]1(CO)[C@@H]2COC(=O)c1ccccc1	i	i	i	i
COc1ccc(S(=O)(=O)N(C)C[C@@H]2Oc3c(NS(=O)(=O)c4ccccc4)cccc3C(=O)N([C@@H](C)CO)C[C@H]2C)cc1	i	i	i	i
C[C@@H]1CCCCO[C@@H](CN(C)S(=O)(=O)c2cn(C)cn2)[C@H](C)CN([C@@H](C)CO)C(=O)c2cc(NS(C)(=O)=O)ccc2O1	i	i	i	i
COC(=O)COc1ccc(S(=O)(=O)NC2CCCCCC2)cc1	i	i	i	i
CNC[C@@H]1Oc2ccc(NC(=O)C3CC3)cc2CC(=O)N([C@@H](C)CO)C[C@H]1C	i	i	i	i
C[C@@H]1CN([C@H](C)CO)C(=O)c2cc(NC(=O)Cc3cn(C)c4ccccc34)ccc2O[C@@H]1CN(C)C(=O)Nc1ccccc1	i	i	i	i
Cc1noc(C)c1S(=O)(=O)Nc1ccc2c(c1)C(=O)N([C@H](C)CO)C[C@H](C)[C@@H](CN(C)Cc1ccccc1)OCCCC[C@@H](C)O2	i	/	i	i
C[C@H]1CN([C@@H](C)CO)C(=O)c2cccc(NC(=O)c3ccc(-c4nccs4)cc3)c2O[C@@H]1CN(C)S(=O)(=O)c1cccs1	i	i	i	i
Cc1noc(C)c1S(=O)(=O)N(C)C[C@@H]1Oc2ccc(NS(C)(=O)=O)cc2CC(=O)N([C@H](C)CO)C[C@@H]1C	i	i	i	i
O=C(COc1ccc(I)cc1)Nc1ccc(O)cc1C(=O)O	i	i	i	i
C[C@H](CO)N1C[C@H](C)[C@@H](CN(C)C(=O)Nc2ccc3c(c2)OCO3)Oc2ccc(NC(=O)C3CC3)cc2CC1=O	i	/	i	i
CC(C)NC(=O)N(C)C[C@H]1Oc2c(NS(=O)(=O)c3cn(C)cn3)cccc2C(=O)N([C@H](C)CO)C[C@H]1C	i	/	i	i
COc1ccc(S(=O)(=O)N(C)C[C@@H]2Oc3c(NC(=O)c4cc(C)nn4C)cccc3C(=O)N([C@@H](C)CO)C[C@H]2C)cc1	i	i	i	i
O=C(CSc1nc(Nc2ccccc2)nc(Nc2ccccc2)n1)N1CCN(c2ccccc2)CC1	i	i	i	i
C[C@H](CO)N1C[C@H](C)[C@@H](CN(C)S(=O)(=O)c2cccs2)Oc2ccc(NC(=O)Nc3ccc(F)cc3)cc2C1=O	i	i	i	i
CC1(C)CC(=O)C(C2C3=C(CC(C)(C)CC3=O)Oc3ccccc32)C(=O)C1 (stereo unspecified)	i	i	i	i
COC(=O)CCSc1ncnc2c1sc1nc(N3CCOCC3)c3c(c12)CCCC3	i	i	i	i
CCc1ccc(CCC(=O)Nc2ccc(Br)cc2)o1	i	i	i	i
C[C@H](CO)N1C[C@H](C)[C@@H](CN(C)C(=O)Nc2ccc(F)cc2)Oc2c(NC(=O)Nc3cccc4ccccc34)cccc2C1=O	i	i	i	i
COc1ccc(S(=O)(=O)Nc2cccc3c2O[C@H](CN(C)S(=O)(=O)c2cn(C)cn2)[C@H](C)CN([C@H](C)CO)C3=O)cc1	i	i	i	i
C[C@H]1CN([C@@H](C)CO)C(=O)c2cccc(NS(=O)(=O)c3cccs3)c2O[C@@H]1CN(C)C(=O)NC1CCCCC1	i	i	i	i
C[C@H]1CN([C@@H](C)CO)C(=O)c2cc(N(C)C)ccc2O[C@H]1CN(C)C(=O)NC1CCCCC1	i	i	i	i
Cc1ccc(S(=O)(=O)Nc2ccc3c(c2)C(=O)N([C@H](C)CO)C[C@H](C)[C@H](CN(C)C(=O)Nc2ccc(F)cc2)OCCCC[C@@H](C)O3)cc1	i	/	i	i
FC(F)(F)c1cccc(-c2noc(-c3cc(-c4ccccc4)c(C(F)(F)F)s3)n2)c1	i	i	i	i
O=C(O)CCc1ccc(-c2cccs2)n1CC1CCCO1 (stereo unspecified)	i	i	i	i

Entries of single compounds from above:
`COc1ccc(S(=O)(=O)Nc2cccc3c2O[C@H](CN(C)S(=O)(=O)c2cn(C)cn2)[C@H](C)CN([C@H](C)CO)C3=O)cc1` across the screens: STAT3 binder = i; ID4 binder = i; Myc binder = i; p53 mut binder = i
`C[C@H]1CN([C@@H](C)CO)C(=O)c2cccc(NS(=O)(=O)c3cccs3)c2O[C@@H]1CN(C)C(=O)NC1CCCCC1` across the screens: STAT3 binder = i; ID4 binder = i; Myc binder = i; p53 mut binder = i
`COc1ccc(S(=O)(=O)N(C)C[C@@H]2Oc3c(NC(=O)c4cc(C)nn4C)cccc3C(=O)N([C@@H](C)CO)C[C@H]2C)cc1` across the screens: STAT3 binder = i; ID4 binder = i; Myc binder = i; p53 mut binder = i

Already shown: entries from further up.
SMILES	STAT3 binder	ID4 binder	Myc binder	p53 mut binder
C[C@H]1CN([C@@H](C)CO)C(=O)c2cc(N(C)C)ccc2O[C@H]1CN(C)C(=O)NC1CCCCC1	i	i	i	i
Cc1ccc(S(=O)(=O)Nc2ccc3c(c2)C(=O)N([C@H](C)CO)C[C@H](C)[C@H](CN(C)C(=O)Nc2ccc(F)cc2)OCCCC[C@@H](C)O3)cc1	i	/	i	i
FC(F)(F)c1cccc(-c2noc(-c3cc(-c4ccccc4)c(C(F)(F)F)s3)n2)c1	i	i	i	i
O=C(O)CCc1ccc(-c2cccs2)n1CC1CCCO1 (stereo unspecified)	i	i	i	i

Following part:
SMILES	STAT3 binder	ID4 binder	Myc binder	p53 mut binder
C[C@H](CO)N1C[C@H](C)[C@H](CN(C)C(=O)Nc2ccc(F)cc2)Oc2ccc(NC(=O)c3ccncc3)cc2C1=O	i	i	i	i
O=C(NCc1ccccc1)[C@]1(CCS(=O)(=O)c2ccccc2)N=C(c2ccc(OCCCO)cc2)O[C@@H]1c1ccccc1	i	i	i	i
CC1CCC23CCC(O[C@@H]4O[C@H](CO)[C@@H](O)[C@H](O)[C@H]4O)C12C(C=O)=CC3(C)C (stereo partly specified)	i	i	i	i
Cn1c(SCC(=O)c2ccc(Cl)cc2Cl)nnc1-c1cccnc1	i	i	i	i
COc1ccccc1-n1c(CN2C(=O)c3ccccc3C2=O)nc2ccccc2c1=O	i	i	i	i
COc1ccc(S(=O)(=O)Nc2ccc3c(c2)CC(=O)N([C@H](C)CO)C[C@H](C)[C@@H](CN(C)Cc2ccc(C(F)(F)F)cc2)O3)cc1	i	i	i	i
CNC[C@H]1Oc2c(NC(=O)c3cnccn3)cccc2C(=O)N([C@H](C)CO)C[C@H]1C	i	i	i	i
C[C@@H]1CN([C@H](C)CO)C(=O)c2cc(NC(=O)Nc3ccccc3)ccc2O[C@H]1CN(C)C(=O)Nc1ccc(C(F)(F)F)cc1	i	i	i	i
Cc1noc(C)c1NC(=O)Nc1ccc2c(c1)C(=O)N([C@@H](C)CO)C[C@@H](C)[C@@H](CN(C)C)OCCCC[C@H](C)O2	i	i	i	i
C[C@H]1CN([C@@H](C)CO)C(=O)c2cc(NC(=O)NC3CCCCC3)ccc2O[C@@H]1CN(C)S(=O)(=O)c1ccc(Cl)cc1	i	i	i	i
COc1ccc(NC(=O)Nc2ccc3c(c2)C(=O)N([C@@H](C)CO)C[C@@H](C)[C@H](CN(C)S(=O)(=O)c2ccc(OC)cc2)OCCCC[C@@H](C)O3)cc1	i	/	i	i
Cc1noc(C)c1S(=O)(=O)Nc1ccc2c(c1)CC(=O)N([C@@H](C)CO)C[C@@H](C)[C@@H](CN(C)C(=O)Nc1cccc3ccccc13)O2	i	i	i	i
CCO[C@H]1OC(C(=O)N2CCN(Cc3ccc4c(c3)OCO4)CC2)=C[C@@H](C2CCCCC2)[C@@H]1CCCO	i	i	i	i
Cc1nc(SCC(=O)Nc2ccc(F)cc2)nc2c1CCCC2	i	i	i	i
Cc1noc(C)c1S(=O)(=O)Nc1cccc2c1O[C@H](CN(C)C(=O)Nc1ccccc1)[C@H](C)CN([C@@H](C)CO)C2=O	i	i	i	i
C[C@@H]1CN([C@@H](C)CO)C(=O)c2cc(NC(=O)Nc3ccccc3)ccc2O[C@@H]1CN(C)C(=O)Nc1ccccc1	i	i	i	i
C[C@@H]1CN([C@@H](C)CO)C(=O)Cc2cc(NC(=O)NC3CCCCC3)ccc2O[C@H]1CN(C)C(=O)Nc1cccc2ccccc12	i	i	i	i
COC(=O)C(CC#Cc1ccc2c(c1)[C@]1(C(=O)N2)[C@H](c2ccc(O)cc2)N2[C@H](c3ccccc3)[C@H](c3ccccc3)OC(=O)[C@H]2[C@@H]1C(=O)NC[C@H](O)c1ccccc1)C(=O)OC	i	i	i	i
C[C@@H]1CN([C@H](C)CO)C(=O)c2cc(NS(=O)(=O)c3ccccc3)ccc2O[C@H]1CN(C)C	i	i	i	i
C[C@@H]1CN([C@H](C)CO)C(=O)c2cccc(NC(=O)C3CCOCC3)c2O[C@@H]1CN(C)Cc1ccc(C(=O)O)cc1	i	i	i	i
Cc1nc2ccccc2n1CC(=O)NCCN1CCCC1	i	i	i	i
Cc1noc(C)c1S(=O)(=O)Nc1ccc2c(c1)CC(=O)N([C@@H](C)CO)C[C@H](C)[C@@H](CN(C)C(=O)Nc1ccc(C(F)(F)F)cc1)O2	i	i	i	i
